TRPML1 ag: activates the human TRPML1 channel; Q9GZU1; activation, % (no concentration beside the values); TRPML1-expressing cells, Ca2+ dye fluorescence, FDSS; host cell line not named in the record; reference of the full effect not given here; AID 624414; hit rate 0.12% among 410,000; in the data active = activation above about 50%; inconclusive = about 30% to 50%; inactive = below about 30%; further: 0% is about no effect; the text of the record puts the active cut at 80%
Target sequence (Q9GZU1 whole entry, looked up): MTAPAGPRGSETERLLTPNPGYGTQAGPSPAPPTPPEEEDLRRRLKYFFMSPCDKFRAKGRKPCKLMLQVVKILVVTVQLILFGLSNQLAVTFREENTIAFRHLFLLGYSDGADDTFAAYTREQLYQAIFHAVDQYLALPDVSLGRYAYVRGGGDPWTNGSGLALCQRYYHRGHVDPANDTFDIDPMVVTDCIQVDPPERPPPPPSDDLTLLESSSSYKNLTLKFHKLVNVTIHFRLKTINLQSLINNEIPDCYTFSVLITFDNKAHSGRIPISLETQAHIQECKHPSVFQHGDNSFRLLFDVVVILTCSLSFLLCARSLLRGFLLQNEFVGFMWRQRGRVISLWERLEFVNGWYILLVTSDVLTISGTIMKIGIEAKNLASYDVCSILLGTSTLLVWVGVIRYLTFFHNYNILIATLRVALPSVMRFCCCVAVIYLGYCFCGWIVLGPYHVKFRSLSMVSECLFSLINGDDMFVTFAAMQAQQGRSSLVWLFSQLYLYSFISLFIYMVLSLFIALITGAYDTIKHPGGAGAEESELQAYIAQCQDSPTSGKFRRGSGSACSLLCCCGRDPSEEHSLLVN
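Agonist activity was taken from a 110 s kinetic Ca2+ dye read on the FDSS after pinning compounds onto TRPML1-DL cells. The cells were seeded at 1,500/well with Tet inducer, incubated about 16 h, then dye-loaded at room temperature.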
gsp agonist: activates gsp, the McCune-Albright syndrome mutation; gsp mutant cells, cAMP HTRF, 30 min; control for the full effect not named in the record; Potency, µM (top dose mostly 76.9 µM), inactives show at the highest dose activation (cAMP increase), most hits filed as activators; hit rate 0.13% among 340,000; AID 624287; active = well fitted activation curve with a large enough effect; inconclusive = small, poorly fitted or top-dose-only effect, or another doubt; inactive = no such curve, though single readings can be large or run the other way; cell line not stated here;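 further: phosphodiesterase inhibitor Ro 20-1724 added with compounds to block cAMP breakdown; potency means the concentration at half of the fitted maximal effect; nearly all actives have a fitted effect of over 60% in size; about a fifth of the inactives were tested at one dose only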
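Cells in DMEM/10% FBS with G418 were pretreated with compounds in DMSO plus […] (300 uM stock) for 30 min at 37C. cAMP was measured by HTRF (cAMP-d2 plus anti-cAMP antibody-K) after 30 min at room temperature.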
gsp antag: antagonizes gsp, the McCune-Albright syndrome mutation; gsp-mutant cells, cAMP HTRF, 30 min; control for the full effect not named in the record; Potency, µM (highest dose often 76.9 µM), for inactives: at the highest dose activity change, negative = inhibition, usual class: inhibitors; hit rate 0.4% among 340,000; active = falling curve of any shape with a large fitted effect; inconclusive = falling curve, mostly with a smaller effect; inactive = flat or rising curve; cell line not stated here;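 further: intracellular cAMP measured with PDE inhibitor Ro 20-1724 present during compound exposure; potency means the concentration at half of the fitted maximal effect; on the % scale 0 is the no-effect control and ±100 the full control effect; nearly all actives have a fitted effect of over 65% in size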
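HTRF cAMP measurement after 30 min RT detection following 30 min, 37C compound treatment alongside […] (added as 300 uM solution) in G418-selected cells seeded at 2000/well and grown 16–24 h.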
ClpP mod: qHTS Assay for Activators of ClpP | Potency, µM (highest dose often 57.5 µM), inactives show at the highest dose activity change, negative = active | purified B. subtilis ClpP, FRET peptide cleavage, 20 min | hit rate 1.9% among 340,000; active = well fitted falling curve with a large enough effect; inconclusive = small, poorly fitted or top-dose-only effect; inactive = no such curve, though single readings can be large or run the other way; further: potency means the concentration at half of the fitted maximal effect; the source files actives as falling curves though it sought activators and does not explain the sign; nearly all actives have a fitted effect of over 65% in size; many hits overshoot -100%
Target sequence (P80244 whole entry, looked up): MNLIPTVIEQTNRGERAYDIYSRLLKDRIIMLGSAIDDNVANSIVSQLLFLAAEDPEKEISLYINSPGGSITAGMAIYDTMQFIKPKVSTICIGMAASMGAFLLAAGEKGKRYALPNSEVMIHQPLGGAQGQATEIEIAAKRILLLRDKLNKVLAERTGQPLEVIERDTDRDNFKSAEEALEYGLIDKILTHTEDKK
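Buffer: 100 mM Tris/HCl pH8, 100 mM KCl, 0.05% low protease BSA, 2.5% glycerol, 0.01% Tween-20. ClpP 10 microg/mL final; 20 min RT; delta FRET normalized to ADEP and DMSO controls.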
Menin-MLL FL inh: menin-MLL binding inhibition, fluorescein peptide | AID 1766 | 290,000 tested, under 10 active | Fluorescence polarization, fluorescein-MLL peptide displacement from menin | FP activity change, % at 61.4 µM; inconclusive = falling polarisation curve, or a change in total fluorescence; inactive = total fluorescence flat and polarisation flat or rising; no compound was filed as active; the % refers to the polarisation; negative = inhibition;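 further: % of control where 0% means no effect; inhibitors lower the polarisation; unlabelled MLL peptide was the positive control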
TRPML1 blocker: human mucolipin-1 channel inhibition | Q9GZU1 | TRPML1-inducible cells, Ca2+ dye fluorescence, FDSS; active compounds read low; inhibition of EC80 agonist-evoked calcium signal | activity change, negative = inhibition, % (test concentration not listed) | hit rate 0.02% among 390,000; in the data active means activity change below about -50%; inconclusive means about -30% to -50%; inactive means above about -30%;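 further: stimulus is agonist 54-4 at its EC80 concentration; on the % scale 0 is the no-effect control and ±100 the full control effect; compound concentration not given in the record; the text of the record puts the active cut at -80%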
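Tet-induced TRPML1-DL cells loaded with Ca8 no-wash calcium dye were read kinetically on FDSS. Compound addition was followed by EC80 agonist 54-4 (4 uM final); inhibition was read over 110 s.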
Active calls of the source: *; ? = inconclusive; nt = not tested or not shown; & = joins results of further samples; [ ] = another dose, or the depositor's remark.

SMILES	TRPML1 ag	gsp agonist	gsp antag	ClpP mod	Menin-MLL FL inh	TRPML1 blocker
O=C1C=C(C2CCCCC2)C(=O)c2ccccc21	0.6	-32%	8%	nt	nt	11
CCCCCCCCN1C(=O)C(O)=C(C(C)=O)C1c1ccccn1 (centres undefined)	-1.2	?	2%	-5.7%	2.7	0
COC(=O)c1c(-c2c(Cl)cccc2Cl)noc1NC(=O)NN1CCOCC1	-0.6	?	-12%	nt	-0.1	2
CC(C)C[C@H](NC(=O)c1[nH]cnc1C(=O)N[C@H](C)c1ccccc1)C(=O)OCc1ccccc1	-0.1	5%	-28%	2.3%	3.3	-5
CN(C(=O)CS(=O)(=O)c1cccc(Cl)c1)c1ccccc1	-0.5	1%[15.4 µM]	6%	nt	-3.8	5
CS(=O)(=O)Nc1ccc(C2=NN(S(=O)(=O)c3ccccc3)C(c3cccs3)C2)cc1 (centres undefined)	-0.7	5%	-18%	-1.7%	?	0
CC(C)(C)C(=O)Nc1nnc(SCC(=O)NCc2ccco2)s1	-0.3	6%[15.4 µM]	15%	0.7%	3.1	-29
CCCc1cc(C(=O)Nc2ccc(CC)cc2)no1	0.6	-6%[15.4 µM]	-10%	nt	1.4	3
COc1ccc(NC(=O)/C(=C\c2ccco2)NC(=O)c2ccco2)cc1	0.1	?	3%	nt	-2.4	3
NS(=O)(=O)c1ccc(NC(=O)COC(=O)C2CC2)cc1	0.1	-3%	15%	nt	nt	-2
O=C(Nc1ccc2ncccc2c1)c1cccc(Br)c1	1.2	-8%	-5%	1.0%	2.0	-13
CCOc1ccccc1NC(=O)C1CCN(S(=O)(=O)c2c(C)noc2/C=C/c2ccc(C)cc2)CC1	0.7	nt	nt	0.6%	nt	-5
CCCc1ccc2oc(C(=O)NCCN3CCCC(C(N)=O)C3)c(C)c2c1 (centres undefined)	-0.1	-13%	15%	-16%	nt	-11
COCCNC(=O)CSc1nc2cc(OC)c(OC)cc2c(=O)n1CCC1=CCCCC1	0.3	19%	-6%	-1.6%	2.8	-16
Cc1cc(=O)[nH]c2nnc(SCC(=O)NC(C)(C)C)n12	-0.2	nt	nt	-6.9%	nt	-19
Cn1c(SCc2ccccc2)nc(N)c(N=O)c1=O	0.9	-5%	-12%	-3.3%	nt	-4
COc1ccc(C)cc1NC(=O)C(=O)N/N=C(\C)CC(=O)Nc1cccnc1	-0.3	-12%	7%	-0.6%	4.9	26
CC(=O)Nc1cccc(-c2cn3ccccc3n2)c1	-0.2	-26%[15.4 µM]	2%	nt	0.3	-19
O=C(c1ccco1)n1nc(-c2ccc(Cl)cc2)nc1NCc1ccco1	-0.6	-24%	5%	0.1%	2.1	15
O=C1OCCN1/N=C/c1ccc([N+](=O)[O-])o1	-0.5	nt	0%	-0.6%	-1.1&0.1&-7.1	4
CCn1cc(C(=O)Nc2ccc(NC(=O)c3ccco3)cc2)c(=O)c2ccc(C)nc21	0.1	2%[15.4 µM]	2%	-3.0%	-1.0	2
O=C(Nc1ncccc1O)c1ccc(Cl)c(S(=O)(=O)N2CCCCC2)c1	1.0	3%	-9%	-1.7%	nt	38
COc1ccc(Cl)cc1NC(=O)CN(C)C(=O)CNC(=O)C12CC3CC(CC(C3)C1)C2	-0.1	-28%	-7%	-1.0%	-1.4	8
CN(C)/C=N/c1ncc(C(=O)c2ccccc2)s1	-1.0	13%	10%	-11%	-1.0	-2
CCOC(=O)C1=C(C)OC(N)=C(C(=O)OCC)C1c1cccnc1 (centres undefined)	1.3	-25%	-11%	-0.6%	1.4	-4
CC1CCC2(CC1)NC(=O)N(CC(=O)NCc1ccco1)C2=O (centres undefined)	0.3	4%	nt	1.5%	nt	-8
COc1ccc(OCCC(=O)Nc2nccs2)cc1	-0.6	-48%[inhibitor]	9%	nt	-1.5	-12
NS(=O)(=O)c1cc(C(=O)OC2CCOC2=O)ccc1Cl (centres undefined)	0.1	-3%	5%	-2.2%	nt	8
O=C(c1cccnc1)N1N=C(c2cccs2)CC1c1ccc(F)cc1 (centres undefined)	-0.5	23%[15.4 µM]	-59%	nt	6.7	0
Cc1cccc(-n2cnc(C(=O)NC3CCCCCC3)c2)n1	-0.3	14%	7%	0.9%	0.6	-4
O=c1c2ccccc2c(-c2ccc(Br)cc2)nn1Cc1ccccc1	1.9	-17%	-10%	-5.5%	-0.6	55
CC1=C(SCCC#N)S/C(=C2\SC(C)=C(SCCC#N)S2)S1	0.6	10%	-9%	-2.0%	6.4	-15
CSc1nc(O)c(Cc2ccccc2)c(=O)[nH]1	0.6	-2%	3%	-1.1%	1.0	6
C[C@@H]1CN([C@H](C)CO)S(=O)(=O)c2ccc(C#C[C@@H](C)O)cc2O[C@@H]1CN(C)Cc1ccc(-c2ccccc2)cc1	0.9	-31%	nt	-4.9%	nt	3
CCc1ccc(-c2nc(CN3CCCC(C(=O)NCc4ccccc4Cl)C3)c(C)o2)cc1 (centres undefined)	0.6	nt	nt	-2.2%	nt	15
CCc1cccc(N2C(=O)CS(=O)(=O)C23C(=O)N(Cc2ccc(F)cc2)c2ccc(C)cc23)c1 (centres undefined)	0.7	nt	nt	-1.5%	nt	-9
Cc1ccc2cc(/C=C3\N=C(c4ccccc4)OC3=O)c(N3CCOCC3)nc2c1	-0.9	9%	3%	-7.1%	14	7
Cc1ccccc1C(=O)N[C@H](C(=O)OCC(=O)c1ccc[nH]1)C(C)C	-1.2	-3%	11%	-0.2%	-0.1	3
COc1ccc(CCNC(=O)C(=O)NCC(c2ccco2)S(=O)(=O)c2ccccc2)cc1OC (centres undefined)	1.1	nt	nt	-0.3%	nt	9
COc1ccc(S(=O)(=O)N2CCCC2C(=O)Nc2ccc(C)cc2)cc1 (centres undefined)	0.9	-2%	-5%	-1.0%	2.8	-6

Random excerpt: four entries already listed
SMILES	TRPML1 ag	gsp agonist	gsp antag	ClpP mod	Menin-MLL FL inh	TRPML1 blocker
CC1=C(SCCC#N)S/C(=C2\SC(C)=C(SCCC#N)S2)S1	0.6	10%	-9%	-2.0%	6.4	-15
Cc1cccc(-n2cnc(C(=O)NC3CCCCCC3)c2)n1	-0.3	14%	7%	0.9%	0.6	-4
O=C(Nc1ncccc1O)c1ccc(Cl)c(S(=O)(=O)N2CCCCC2)c1	1.0	3%	-9%	-1.7%	nt	38
C[C@@H]1CN([C@H](C)CO)S(=O)(=O)c2ccc(C#C[C@@H](C)O)cc2O[C@@H]1CN(C)Cc1ccc(-c2ccccc2)cc1	0.9	-31%	nt	-4.9%	nt	3

Following part.
SMILES	TRPML1 ag	gsp agonist	gsp antag	ClpP mod	Menin-MLL FL inh	TRPML1 blocker
C=CCN(c1ccccc1)S(=O)(=O)c1cccc(C(=O)NC2CCC(O)CC2)c1 (centres undefined)	-0.5	-13%[15.4 µM]	2%	1.3%	nt	-13
COc1ccc(-c2ccc(SCC(=O)c3cccs3)nn2)cc1	-0.4	8%[15.4 µM]	-16%	-2.8%	-3.8	-20
CC(C)CC1C(=O)N(Cc2cn(CC3CCCCC3)nn2)CCS(=O)(=O)N1Cc1ccc(-c2cccc(C#N)c2)cc1 (centres undefined)	1.7	nt	-14%	-5.1%	nt	0
Cc1cc2cc(CNC(=O)c3ccc(S(=O)(=O)N4CCCCC4)cc3)ccc2n1C	-0.3	44%	41%[activator]	-1.9%	?	-6
CC(Oc1ccc(Cl)cc1Cl)C(=O)Nc1ccc(OCC(=O)O)cc1 (centres undefined)	-0.5	6%	12%	1.2%	-0.8	13
CCc1ccc2c(c1)C(c1ccc([N+](=O)[O-])cc1)=NNC(c1ccc(C)cc1)=N2	-0.2	4%	9%	1.9%	9.4	-4
Cc1nn(CC(O)CN2c3ccccc3Sc3ccccc32)c(C)c1Br (centres undefined)	0.2	3%	-8%	-2.7%	1.0	5
O=C(c1cccc2nccnc12)N1CCCC(Nc2ccc(F)c(F)c2)C1 (centres undefined)	0.1	-5%	5%	0.8%	nt	20
COc1ccc(-n2c(-c3ccccc3)cc3c2CCCC3=O)cc1	0.2	-48%[inhibitor]	-25%	-3.3%	1.4	?
Cn1c(SCC(=O)c2ccccc2)nnc1-c1cccc(N)c1	-1.0	-8%	-1%	-3.4%	1.0	-5
COc1cc(OC)cc(C(=O)OCC(=O)Nc2cccc(S(=O)(=O)NC3=NCCCCC3)c2)c1	-0.1	-3%[15.4 µM]	-8%	-0.5%	nt	-10
Cc1cc2oc(C(=O)N(Cc3ccc(Cl)cc3)Cc3ccco3)c(C)c2cc1Cl	2.7	nt	nt	-3.4%	nt	38
CCC(C)(C)NC(=O)c1cccc(NC(=O)C(C)C)c1	-0.6	4%[15.4 µM]	-2%	nt	0.2	-7
COc1ccc(N(C(=O)CNC(=O)c2ccco2)C(C(=O)NCC2CCCO2)c2ccccc2)cc1Cl (centres undefined)	-1.0	12%[15.4 µM]	-26%	-30%	-4.2	4
Cn1c(-c2c(N)n(CCc3ccccc3)c3nc4ccccc4nc23)nc2ccccc21	9.9	43%	-14%	-1.0%	?	3
C=CCn1c(COc2cccc3ccc(C)nc23)nnc1SCC(=O)OC	3.2	-3%	0%	28µM*	-0.2	8
CC1CCC2(CC1)NC(=O)N(CC(=O)N1CCN(C(=O)c3ccco3)CC1)C2=O (centres undefined)	0.0	-12%	4%	0.6%	nt	2
O=C(O)CC(c1cccc(Cl)c1)n1cccc1 (centres undefined)	-0.6	-29%	-11%	-0.6%	3.2	5
CCOC(=O)c1sc(N)c(C(=O)Nc2ccccc2)c1C	0.6	-31%	-6%	-4.1%	-2.2	-6
Oc1ccccc1C1=NCCNC(C(F)(F)C(F)F)=C1	-0.4	1%	0%	-2.1%	4.3	-3
Cc1nnc(N2C(=O)c3oc4ccccc4c(=O)c3C2c2cccc(OCCC(C)C)c2)s1 (centres undefined)	0.1	nt	nt	-1.5%	nt	-7
Cc1ccc(S(=O)(=O)N(CC(=O)Nc2cccnc2)c2ccccc2C)cc1	-0.4	1%[15.4 µM]	-40%	nt	-19	-2
O=C(Nc1ccccc1)NC1CS(=O)(=O)CC1O (centres undefined)	-0.6	4%	6%	1.1%	2.5	7
Cc1ccccc1NC(=O)CCn1nc(-c2ccc(Cl)cc2)c2ccccc2c1=O	1.6	nt	nt	-2.4%	nt	3
O=C(O)c1ccc(N=NN2CCCCCC2)cc1	0.2	-37%	-10%	-0.4%	1.0	6
COc1ccc(C(=O)Nc2nnc(SCC(=O)NCC3CCCO3)s2)cc1OC (centres undefined)	1.1	?	19%	-2.5%	nt	10
COC(=O)C(CCCCN1C(=O)C2C3C=CC(C3)C2C1=O)N1C(=O)C2C3C=CC(C3)C2C1=O (centres undefined)	-0.5	-8%	-1%	3.4%	-0.9	-3
N#CCCN1CCN(Cc2ccccc2)CCC1=O	0.0&-0.4	nt	6%	1.1%&0.7%	0.7	27
Cc1cccc(C)c1NC(=O)COC(=O)c1cc(-c2cccnc2)nc2ccccc12	-0.6	?	-17%	-23%	12	1

Screens: PubChem BioAssay, National Center for Advancing Translational Sciences (NCATS)
